KCNQ2 inh: KCNQ2 potassium channel inhibitors, primary screen, cell-based, CHO-K1, FluxOR thallium flux, B-score (AID 2156); Potassium voltage-gated channel subfamily KQT member 2 (Rattus norvegicus), O88943; 310,000 tested, 1.1% active; B-score at 10 µM; 20 min; hits give low values; only compounds with negative scores are shown here; some inactives read as strong as hits;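 active = fluorescence ratio B-score at most minus 3 library SDs, with starting brightness B-score within 2 library SDs, cut at about -5.5 in these data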
Target sequence (O88943 whole entry, looked up): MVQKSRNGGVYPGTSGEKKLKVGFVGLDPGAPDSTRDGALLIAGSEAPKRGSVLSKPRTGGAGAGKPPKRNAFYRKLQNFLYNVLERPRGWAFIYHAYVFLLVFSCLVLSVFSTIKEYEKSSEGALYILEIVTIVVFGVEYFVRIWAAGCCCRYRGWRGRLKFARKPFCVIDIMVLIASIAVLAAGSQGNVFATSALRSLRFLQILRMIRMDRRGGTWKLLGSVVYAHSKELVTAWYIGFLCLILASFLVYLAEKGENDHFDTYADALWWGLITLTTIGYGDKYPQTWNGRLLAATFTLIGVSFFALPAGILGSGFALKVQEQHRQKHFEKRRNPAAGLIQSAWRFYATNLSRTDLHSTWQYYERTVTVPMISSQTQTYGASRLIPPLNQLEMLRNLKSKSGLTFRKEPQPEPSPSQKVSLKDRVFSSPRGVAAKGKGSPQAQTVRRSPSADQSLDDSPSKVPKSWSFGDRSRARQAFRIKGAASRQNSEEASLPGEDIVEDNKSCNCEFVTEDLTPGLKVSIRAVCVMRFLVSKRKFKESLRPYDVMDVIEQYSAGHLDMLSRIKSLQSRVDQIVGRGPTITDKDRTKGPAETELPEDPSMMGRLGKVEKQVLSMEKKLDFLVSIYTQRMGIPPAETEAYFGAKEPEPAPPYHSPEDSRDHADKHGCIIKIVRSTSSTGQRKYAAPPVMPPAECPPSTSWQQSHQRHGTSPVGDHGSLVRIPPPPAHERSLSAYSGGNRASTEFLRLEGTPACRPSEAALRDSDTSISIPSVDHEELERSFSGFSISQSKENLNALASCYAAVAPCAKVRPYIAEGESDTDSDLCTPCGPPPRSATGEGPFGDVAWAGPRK
KCNQ2 inh baseline: recorded beside KCNQ2 inh, whose call it bears; B-score; measured here: initial fluorescence intensity artifact check;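 brightness before thallium and not channel activity; 0 = typical well and far values either way flag optical interference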
* marks the source's active call; other numbers are inactive results.

Screening NC(=O)COC(=O)c1ccc(S(=O)(=O)N2CCCCCC2)cc1 returned KCNQ2 inh inactive and KCNQ2 inh baseline 2.92.
`CN(C)c1nc(-c2ccccc2)ns1` gave KCNQ2 inh inactive and KCNQ2 inh baseline -1.71.
Screening COc1cc(OC)cc(C(=O)NNC(=O)c2ccc(S(=O)(=O)N(C)c3ccccc3OC)cc2)c1 returned KCNQ2 inh inactive and KCNQ2 inh baseline -0.89.
O=C1N/C(=C/c2cccn2-c2ccc(F)cc2)C(=O)N1Cc1ccccc1 was read as KCNQ2 inh inactive and KCNQ2 inh baseline 0.91.
For CC1(OC(=O)CCc2ccccc2)C(=O)C=C2C=C(c3ccc(C#N)cc3)N(Cc3ccco3)C=C2C1=O (configuration not stated) the results were KCNQ2 inh inactive and KCNQ2 inh baseline 0.97.
`CCOc1ccccc1OCCC(=O)OCC(=O)c1ccc[nH]1` gave KCNQ2 inh inactive and KCNQ2 inh baseline 1.87.
Screening N#Cc1cc2c(nc1SCc1ccccc1)CCCC2=O returned KCNQ2 inh inactive and KCNQ2 inh baseline -1.04.
For Cc1ccc(NC(=O)CSc2nnc(-c3cccs3)n2Cc2ccco2)cc1 the results were KCNQ2 inh inactive and KCNQ2 inh baseline -0.31.
Screening CN(CC(=O)Nc1ccccc1C(F)(F)F)C(=O)CN1C(=O)C2CCCCC2C1=O (configuration not stated) returned KCNQ2 inh inactive and KCNQ2 inh baseline -0.23.
COc1ccccc1CNC(=O)C(c1ccccc1)c1ccccc1 was read as KCNQ2 inh inactive and KCNQ2 inh baseline 1.07.
`N#Cc1c(-c2ccccc2)nc(SCC(=O)NC2CCCCC2)[nH]c1=O` gave KCNQ2 inh inactive and KCNQ2 inh baseline -0.2.
`CC(CCO)Nc1nc2c(c(=O)n(C)c(=O)n2C)n1Cc1cccc(Br)c1` (configuration not stated) gave KCNQ2 inh inactive and KCNQ2 inh baseline 0.32.
Screening CCOc1ccc(CCNC(=O)CCS(=O)(=O)c2ccc(Cl)cc2)cc1OCC returned KCNQ2 inh inactive and KCNQ2 inh baseline 0.52.
For Cc1ccc(CN2CCN(Cc3ccccc3-c3ccco3)CC2CCO)o1 (configuration not stated) the results were KCNQ2 inh inactive and KCNQ2 inh baseline 2.02.
`CN1C(=O)/C(=C\c2ccccc2F)Sc2ccc(C(=O)NC3CCN(Cc4ccccc4)CC3)cc21` gave KCNQ2 inh inactive and KCNQ2 inh baseline 0.81.
`CCOC(=O)c1ccc(Nc2ccc(-c3ccc(OC)c(OC)c3)nn2)cc1` gave KCNQ2 inh inactive and KCNQ2 inh baseline -1.27.
Screening Cc1ccc(C)c(N=C2CCCN2Cc2ccccc2)c1C#N returned KCNQ2 inh -7.29* and KCNQ2 inh baseline -1.13*.
Screening O=C1NC(=O)/C(=C\c2cn(Cc3ccccc3F)c3ccccc23)N1 returned KCNQ2 inh inactive and KCNQ2 inh baseline 0.05.
COc1cccc(-c2nnc(-c3ccc(C(F)(F)F)cc3)o2)c1 was read as KCNQ2 inh inactive and KCNQ2 inh baseline 1.03.
For COc1ccccc1C1=NOC(C)(c2nnc(-c3cccc(Cl)c3)o2)C1 (configuration not stated) the results were KCNQ2 inh inactive and KCNQ2 inh baseline 0.03.
Screening CNC(=O)COC(=O)c1ccc2c(c1)S(=O)(=O)c1ccccc1C2=O returned KCNQ2 inh inactive and KCNQ2 inh baseline -0.28.
For Cc1ccc(C(C(=O)NCCc2ccccc2)N(C(=O)c2csnn2)C2CC2)cc1 (configuration not stated) the results were KCNQ2 inh inactive and KCNQ2 inh baseline 0.93.
For Cc1nc2ccccc2n1Cc1ccccc1Br the results were KCNQ2 inh inactive and KCNQ2 inh baseline 0.26.
For CNC(=O)COC(=O)CCC(=O)c1cccs1 the results were KCNQ2 inh inactive and KCNQ2 inh baseline -0.04.
`COc1ccc([C@H]2/C=C\CN(C(=O)CC(C)(C)C)[C@@H](C)C(=O)N2Cc2ccc(F)cc2)cc1` gave KCNQ2 inh inactive and KCNQ2 inh baseline -0.58.
`N[C@@]12CCc3nonc3[C@]1(O)CC(c1ccccc1)=[N+]2[O-]` gave KCNQ2 inh inactive and KCNQ2 inh baseline 0.6.
Cc1ccc(C(=O)C2CCN(CC(=O)Nc3ccc4c(c3)OCCO4)CC2)cc1 was read as KCNQ2 inh inactive and KCNQ2 inh baseline 1.89.
CCCCc1nnc(SCC(=O)Nc2nccs2)n1CC was read as KCNQ2 inh inactive and KCNQ2 inh baseline 0.85.
For COc1ccc(CNC(=O)C(OC(=O)c2ccco2)c2ccc(OC)cc2)cc1 (configuration not stated) the results were KCNQ2 inh inactive and KCNQ2 inh baseline 0.68.
O/N=C(\c1ccc(Cl)cc1Cl)c1ncc(C(F)(F)F)cc1Cl was read as KCNQ2 inh inactive and KCNQ2 inh baseline -1.03.
`CC1(C)OC(=O)C2(Cc3ccccc3N3CCCCC32)C(=O)O1` (configuration not stated) gave KCNQ2 inh inactive and KCNQ2 inh baseline 1.22.
Screening COc1ccc2c(c1)C(NC(C)=O)C(=O)N2CCc1ccccc1 (configuration not stated) returned KCNQ2 inh inactive and KCNQ2 inh baseline 0.56.
`CCCCOC(=O)Nc1ccccc1C(=O)OC` gave KCNQ2 inh inactive and KCNQ2 inh baseline 1.14.
Screening COc1ccc(CNC(C)(C)C)cc1Cl returned KCNQ2 inh inactive and KCNQ2 inh baseline 0.03.
Screening COc1ccc(C(=O)OCC(=O)NC2CCCC2)cc1OC returned KCNQ2 inh inactive and KCNQ2 inh baseline -0.4.
Cc1c(Cl)cccc1N1C(=O)C(N2C(=O)c3cccc([N+](=O)[O-])c3C2=O)C1c1cccs1 (configuration not stated) was read as KCNQ2 inh inactive and KCNQ2 inh baseline -1.15.

3 structures out of the list, sorted by SMILES length, lowest first.
Screening COc1ccc(C(=O)OCC(=O)NC2CCCC2)cc1OC returned KCNQ2 inh inactive and KCNQ2 inh baseline -0.4.
Screening COc1ccc2c(c1)C(NC(C)=O)C(=O)N2CCc1ccccc1 (configuration not stated) returned KCNQ2 inh inactive and KCNQ2 inh baseline 0.56.
`N[C@@]12CCc3nonc3[C@]1(O)CC(c1ccccc1)=[N+]2[O-]` gave KCNQ2 inh inactive and KCNQ2 inh baseline 0.6.

Next part
COc1ccc(-c2sc3ccccc3c2C#CCO)cc1 was read as KCNQ2 inh inactive and KCNQ2 inh baseline -0.76.
CN(C)CCN1C(=O)C(=O)/C(=C(/O)c2ccc(S(=O)(=O)N3CCOCC3)cc2)C1c1ccc(Br)cc1 (configuration not stated) was read as KCNQ2 inh inactive and KCNQ2 inh baseline -0.42.
CCOCCCNC(=O)CSc1nc2nc(C)c(Cc3ccccc3)c(C)n2n1 was read as KCNQ2 inh inactive and KCNQ2 inh baseline 0.57.
Screening COC(=O)c1cc(COc2ccc3ccc(=O)oc3c2)c(C)o1 returned KCNQ2 inh inactive and KCNQ2 inh baseline -0.71.
Screening Cc1oc(/N=C/c2ccc(O)cc2O)c(C#N)c1C returned KCNQ2 inh inactive and KCNQ2 inh baseline 1.68.
For O=C(Cn1cc(C(=O)c2ccco2)c2ccccc21)Nc1ccccc1 the results were KCNQ2 inh inactive and KCNQ2 inh baseline 2.1.
Screening CCOC(=O)N1CCN(C(=O)c2ccc3c(=O)n(-c4ccc(OC)cc4OC)c(=S)[nH]c3c2)CC1 returned KCNQ2 inh inactive and KCNQ2 inh baseline 0.87.
For O=[N+]([O-])c1ccc(Cl)c(CN2CCCCCC2)c1 the results were KCNQ2 inh inactive and KCNQ2 inh baseline -0.01.
Screening Clc1cccc(Cl)c1CNc1ccc(N2CCCC2)cc1 returned KCNQ2 inh inactive and KCNQ2 inh baseline -0.23.
`O=C(O)C1CCCCC1C(=O)NCc1ccc2c(c1)OCO2` (configuration not stated) gave KCNQ2 inh inactive and KCNQ2 inh baseline 1.11.
`CC(C)NC(=O)NNC(=O)c1cc(COc2cc(Cl)cc(Cl)c2)on1` gave KCNQ2 inh inactive and KCNQ2 inh baseline 1.02.
Screening Cc1ccc(NS(=O)(=O)c2c(C)nc3sccn3c2=O)cc1 returned KCNQ2 inh inactive and KCNQ2 inh baseline -0.01.
Cc1c(NC(=O)COC(=O)c2cc(-c3cccc4ccccc34)nc3ccccc23)c(=O)n(-c2ccccc2)n1C was read as KCNQ2 inh inactive and KCNQ2 inh baseline 2.17.
`Cc1ccc(CCNC(=O)CS(=O)Cc2nc(-c3cccc(C)c3)oc2C)cc1` (configuration not stated) gave KCNQ2 inh inactive and KCNQ2 inh baseline -0.89.
For NC(=O)CSc1nc2sc3c(c2c2ncnn12)CCCC3 the results were KCNQ2 inh inactive and KCNQ2 inh baseline 1.25.
Screening CCn1c(CNC(=O)c2cccc(C)c2)nnc1SCC(=O)NC1=NCCS1 returned KCNQ2 inh inactive and KCNQ2 inh baseline 0.85.
COc1ccc(Nc2ncc3c(n2)CC(c2ccccc2)CC3=O)cc1 (configuration not stated) was read as KCNQ2 inh inactive and KCNQ2 inh baseline -1.02.
Cc1ccc(C)n1-c1ccc(N2CCOCC2)c([N+](=O)[O-])c1 was read as KCNQ2 inh inactive and KCNQ2 inh baseline 0.95.
CCN(CC)c1ccc(NC(=O)COc2ccccc2C)cc1S(=O)(=O)Nc1ccccc1OC was read as KCNQ2 inh inactive and KCNQ2 inh baseline 1.13.
`Cc1ccc(-c2nn(-c3ccccc3)cc2/C=N/n2c(-c3ccncc3)n[nH]c2=S)cc1` gave KCNQ2 inh inactive and KCNQ2 inh baseline -0.38.
Screening Cc1cc(NC(=O)CSCC(=O)N2CCN(c3cccc(C(F)(F)F)c3)CC2)no1 returned KCNQ2 inh inactive and KCNQ2 inh baseline -1.76.
COC(=O)c1nc2nc(-c3cccs3)cc(C(F)(F)F)n2n1 was read as KCNQ2 inh inactive and KCNQ2 inh baseline -0.79.
Screening CC(C)CCn1nnnc1C(c1ccc(N(C)C)cc1)N1CCN(C(=O)c2ccco2)CC1 (configuration not stated) returned KCNQ2 inh inactive and KCNQ2 inh baseline 0.24.
For c1ccc(-c2csc(N3CCN(c4ccccn4)CC3)n2)cc1 the results were KCNQ2 inh inactive and KCNQ2 inh baseline -0.28.
CCCc1nc(S(=O)(=O)Cc2ccc(Cl)cc2Cl)n[nH]1 was read as KCNQ2 inh inactive and KCNQ2 inh baseline -0.48.
COc1ccc(Cl)cc1NC(=O)CSc1nnc(COc2ccccc2)n1N was read as KCNQ2 inh inactive and KCNQ2 inh baseline -2.59.
CC(C)On1c(SC(C)C)nc2ccccc2c1=O was read as KCNQ2 inh inactive and KCNQ2 inh baseline -1.03.
For COc1ccc(CNC(=O)C[C@H]2C(=O)N(Cc3ccc(OC)cc3)C[C@@H]2Cc2ccccc2)cc1 the results were KCNQ2 inh inactive and KCNQ2 inh baseline 0.34.
`COc1ccc(-c2csc(NC(=O)c3ccoc3C)n2)cc1` gave KCNQ2 inh inactive and KCNQ2 inh baseline 0.68.
For COc1cc(SC)ccc1C(=O)N1CCCCCC1 the results were KCNQ2 inh inactive and KCNQ2 inh baseline 0.35.
For Cc1ccc(SCCNC(=O)c2ccc(C)c([N+](=O)[O-])c2)cc1 the results were KCNQ2 inh inactive and KCNQ2 inh baseline -0.62.
CCCN(CCC)C(=O)/C=C/c1cccc([N+](=O)[O-])c1 was read as KCNQ2 inh inactive and KCNQ2 inh baseline -1.03.
`CCOC(=O)c1[nH]c2ccccc2c1NC(=S)Nc1ccccc1C` gave KCNQ2 inh inactive and KCNQ2 inh baseline 1.14.
For Cn1c(CC(=O)Nc2ccccc2F)nnc1SCC(=O)Nc1ccccc1Br the results were KCNQ2 inh inactive and KCNQ2 inh baseline -0.83.
`N=c1ccn(Cc2ccc(Cl)cc2)cc1` gave KCNQ2 inh inactive and KCNQ2 inh baseline 0.02.
Screening O=S(=O)(c1ccccc1)N1CN(Cc2ccc(F)cc2)c2nc3ccccc3nc21 returned KCNQ2 inh inactive and KCNQ2 inh baseline 1.53.
Screening CCOC(=O)CN1C(=O)C(=O)N(Cc2c(F)cccc2Cl)C1=O returned KCNQ2 inh inactive and KCNQ2 inh baseline 0.08.
COc1ccc(-c2nnc(SCc3nnc(-c4ccccc4)o3)n2-c2ccccc2)cc1 was read as KCNQ2 inh inactive and KCNQ2 inh baseline -1.69.
Screening CC(OC(=O)c1ccc(NS(=O)(=O)c2cccs2)cc1)C(=O)N(C)C1CCCCC1 (configuration not stated) returned KCNQ2 inh inactive and KCNQ2 inh baseline -1.1.
For Nc1cc(=O)[nH]c(SCC(=O)Nc2ccccc2-c2ccccc2)n1 the results were KCNQ2 inh inactive and KCNQ2 inh baseline 0.29.
Screening COC(=O)c1sc(SC)c2c1CC(C)(C)C/C2=N/O returned KCNQ2 inh inactive and KCNQ2 inh baseline -0.59.
`CN1CCN(C(=O)CCCOc2ccc(Cl)cc2Cl)CC1` gave KCNQ2 inh inactive and KCNQ2 inh baseline 0.9.
For CCN(CC)C(=O)c1ccc2nc(-c3ccccc3)c(-c3ccccc3)nc2c1 the results were KCNQ2 inh inactive and KCNQ2 inh baseline 0.05.

Gathered by group, the compounds so far with a thiophene ring, fused or not
For Cc1ccc(NC(=O)CSc2nnc(-c3cccs3)n2Cc2ccco2)cc1 the results were KCNQ2 inh inactive and KCNQ2 inh baseline -0.31.
For CNC(=O)COC(=O)CCC(=O)c1cccs1 the results were KCNQ2 inh inactive and KCNQ2 inh baseline -0.04.
Cc1c(Cl)cccc1N1C(=O)C(N2C(=O)c3cccc([N+](=O)[O-])c3C2=O)C1c1cccs1 (configuration not stated) was read as KCNQ2 inh inactive and KCNQ2 inh baseline -1.15.
COc1ccc(-c2sc3ccccc3c2C#CCO)cc1 was read as KCNQ2 inh inactive and KCNQ2 inh baseline -0.76.
For NC(=O)CSc1nc2sc3c(c2c2ncnn12)CCCC3 the results were KCNQ2 inh inactive and KCNQ2 inh baseline 1.25.
COC(=O)c1nc2nc(-c3cccs3)cc(C(F)(F)F)n2n1 was read as KCNQ2 inh inactive and KCNQ2 inh baseline -0.79.
Screening CC(OC(=O)c1ccc(NS(=O)(=O)c2cccs2)cc1)C(=O)N(C)C1CCCCC1 (configuration not stated) returned KCNQ2 inh inactive and KCNQ2 inh baseline -1.1.
Screening COC(=O)c1sc(SC)c2c1CC(C)(C)C/C2=N/O returned KCNQ2 inh inactive and KCNQ2 inh baseline -0.59.

High-throughput results deposited in PubChem by Johns Hopkins Ion Channel Center.

An excerpt; rates above refer to the full screens.
